Screening results from PubChem.
Vif A3G – HIV-1 Vif–A3G interaction blockers – biochemical, TR-FRET, GST-Vif 1-94, biotin-A3G peptide, dose response retest, primary screen (AID 1117319); TR-FRET GST-Vif / biotin-A3G peptide binding; higher % means a stronger effect; test concentration not given here; strong numbers were not always called active; inhibition, %, or IC50 in µM where a hit was titrated; 0.57% of 260,000 active;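 active means above the screen mean plus three standard deviations and confirmed in dose response; inconclusive means results disagree or hit not tested in dose response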;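 further: Vif residues 1-94 fused to GST binding biotinylated APOBEC3G peptide 110-148; 0% = full assay without inhibitor and 100% = GST in place of GST-Vif; retest series ran down from 100 µM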
LANA-H2B inh – blocks KSHV LANA binding to histone H2A/H2B | Q9QR71 | cell-free LANA-H2A/H2B peptide, fluorescence polarization | inhibition, % (test concentration not listed) | 0.6% of 320,000 active | AID 2629; in the data active means inhibition mostly above about 10%, no sharp cut-off; inactive means mostly below about 6.7%;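 further: stock transfer was 7.5 nL into about 10 µL; 0% = median of vehicle wells and 100% = median of positive control wells; one replicate is shown; the record names a cut of 25% in any replicate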
RanGTP-Imp inh – inhibitors of RanGTP-importin-beta interaction, primary screen, biochemical, FRET, CFP-Ran, YFP-importin-beta, homogeneous. cell-free CFP-Ran/YFP-importin-beta FRET ratio. inhibition, % (no concentration beside the values). 1.1% of 300,000 active;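 active means most replicates above 15%; inconclusive means exactly half above 15%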;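 further: 0% = DMSO wells and 100% = Ran loaded with GDP instead of GTP; wells of about 40 µL received 100 nL stock; the first replicate is given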
Calb FLC – C. albicans growth modulation with fluconazole; C. albicans CaCi-2 (fluconazole-resistant clinical isolate) + fluconazole, Alamar Blue growth, 48 h; growth inhibition, % (no concentration beside the values); 0.57% of 300,000 active; AID 1979;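 active means most replicates above 75%; inconclusive means exactly half above 75%; inactive means most below 75%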;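 further: all wells also contain fluconazole at 8 µg/ml as a sub-toxic cotreatment; 0% = median of DMSO wells and 100% = median of geldanamycin control wells; wells of about 8 µL received 7.5 nL stock; the first replicate is given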
Beta cell apopt – blocks beta cell apoptosis | INS-1E cytokine-induced death, ATP luminescence, 48 h; percent of positive-control rescue, neutral wells zero | protection from apoptosis, % (test concentration not listed) | 0.8% of 300,000 active;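 active means all replicates at 75% or more, or half of them and the mean; inconclusive means half reach 75% but not the mean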;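 further: 0% = cytokine-treated negative control wells and 100% = positive control rescue; higher means more ATP so stronger rescue from cytokine killing; wells of about 40 µL received 100 nL stock; the first replicate is given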
AF4-AF9 inh – inhibitors of human MLL-AF4/AF9 interaction; AlphaScreen, biotin-AF4 peptide binding to FLAG-AF9; inhibition, % at 10 µM; 0.47% of 350,000 active;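 active means every replicate reaching a set inhibition limit, whatever the replicate mean, cut at about 25% in these data; inconclusive means mean inhibition reaches that limit but some replicates miss it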;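 further: 0% = plate neutral control median and 100% = total signal loss; the record names both 10 and 1 µM as test concentration; the first replicate is given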
Target sequence (P42568 whole entry, looked up): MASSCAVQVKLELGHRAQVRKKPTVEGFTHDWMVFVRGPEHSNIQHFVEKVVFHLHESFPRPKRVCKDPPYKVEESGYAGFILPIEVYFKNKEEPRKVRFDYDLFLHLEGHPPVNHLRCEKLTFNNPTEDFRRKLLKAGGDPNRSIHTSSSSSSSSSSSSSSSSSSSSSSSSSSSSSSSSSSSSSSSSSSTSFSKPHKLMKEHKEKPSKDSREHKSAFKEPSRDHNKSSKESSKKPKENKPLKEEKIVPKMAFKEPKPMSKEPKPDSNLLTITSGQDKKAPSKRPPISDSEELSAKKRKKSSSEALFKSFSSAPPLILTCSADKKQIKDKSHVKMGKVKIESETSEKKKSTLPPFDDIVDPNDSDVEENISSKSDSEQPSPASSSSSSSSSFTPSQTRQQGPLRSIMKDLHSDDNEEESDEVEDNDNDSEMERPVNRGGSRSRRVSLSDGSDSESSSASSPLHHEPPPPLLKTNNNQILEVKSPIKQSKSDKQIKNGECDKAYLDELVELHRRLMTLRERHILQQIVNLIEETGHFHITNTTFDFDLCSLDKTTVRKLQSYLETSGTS
T cruzi inh – T. cruzi replication inhibition | 1.4% of 300,000 active | T. cruzi beta-gal in NIH3T3, luminescence, 90 h | inhibition, % (concentration not given with the values);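 active means mean inhibition across valid replicates above about 55%, limit read from the data; inconclusive means mean below that limit but half or more replicates reach it; inactive means mean below it, under half of replicates reach it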;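 further: signal also drops with host cell toxicity which is not excluded here; 0% = plate median of DMSO wells and 100% = zero luminescence signal; higher percent means less beta-gal luminescence so fewer parasites; stock transfer was 50 nL into about 50 µL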
A1 inh – inhibitors of the anti-apoptotic protein A1, read as caspase activation | 0.066% of 330,000 active | AID 2462 | caspase activation, % (no concentration beside the values) | MEF A1-2A-BIM cells, Caspase-Glo 3/7 luminescence, 3 h; percent of clofoctol response, vehicle zero;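 active means over half of replicate activation scores above 10%, or exactly half above 10 with the replicate mean above 10; inconclusive means replicate mean below 10 yet half the replicates above 10; inactive means over half of replicates below 10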;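 further: wells of about 30 µL received 50 nL stock; many hits fall short of the cut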
Active calls of the source: *; ? = inconclusive; . = not tested or not shown. Compounds as they come; 4.3% or so of the library scored in one or more.

1: N#Cc1ccc(COC(=O)c2cnc3ccccc3n2)cc1
2: CC(C)C1CC(c2csc(N)n2)CCO1 (stereo not given)
3: CC1CCC2(CC1)NC(CO)(CO)CO2 (stereo not given)
4: FC(F)(F)c1cccc(-c2cc(C3CCNCC3)[nH]n2)c1
5: O=C(Nc1ccccc1Cl)C1CCN(S(=O)(=O)c2cccc3nonc23)CC1
6: C=C(C)C1Cc2c(C)nn(-c3cccc4ccccc34)c2C1 (stereo not given)
7: O=C(Nc1cc(NC(=O)c2ccccc2F)ccc1Cl)c1ccccc1
8: O=C1C=C(c2cccc(Cl)c2)C[C@@H](c2ccc(Cl)cc2)C1
Compound | 1 | 2 | 3 | 4 | 5 | 6 | 7 | 8
Vif A3G | . | 7% | . | 0% | . | 4% | -9% | .
LANA-H2B inh | -2.9 | 4.6 | -4.8 | 4.9 | 0.5 | -5.3 | -0.4 | -3.2
RanGTP-Imp inh | 5.7 | 5.3 | -1.5 | 2.7 | 2.9 | 1.2 | 2.4 | .
Calb FLC | -4 | -4 | -2 | 1 | -1 | -22 | -3 | .
Beta cell apopt | -6 | -9 | -8 | . | 2 | 66 | -3 | -5
AF4-AF9 inh | 0.9 | . | . | 3.0 | -0.2 | . | -0.5 | -2.1
T cruzi inh | 2 | 9 | 0 | 56* | -19 | 20 | -9 | .
A1 inh | 0.4 | 0.2 | -0.2 | 0.7 | -0.3 | 0.4 | -0.4 | 0.4

9: Cc1ccc2oc(C(=O)Nc3ccc(S(=O)(=O)Nc4onc(C)c4C)cc3)cc(=O)c2c1
10: Cc1cccn2c(=O)c(/C=C(\C#N)S(=O)(=O)c3ccccc3)c(N3CCCCC3)nc12
11: COC/C=C/C1=CC2=CC(=O)C(C)(OC(=O)c3cnc4ccccc4n3)C(=O)C2=CN1Cc1ccccc1 (stereo not given)
12: CC1CCN(c2nc3c(c(=O)[nH]c(=O)n3C)n2CC(C)CSc2nnnn2-c2ccccc2)CC1 (stereo not given)
13: Cn1c(SCC(=O)NCCc2ccccc2)nnc1-c1ccco1
14: COc1cc(Cn2c(C(=O)O)cc3sccc32)cc(OC)c1OC
15: CCCCC[C@H](O)/C=C/[C@@H]1[C@@H](C/C=C\CCCC(=O)OC)[C@@H](O)C[C@H]1O
16: Cc1noc(C)c1C(=O)N(C)CC(=O)Nc1ccc(F)c(F)c1F
Compound | 9 | 10 | 11 | 12 | 13 | 14 | 15 | 16
Vif A3G | -5% | -14% | . | -4% | -1% | 4% | -5% | .
LANA-H2B inh | -3.0 | -1.4 | -1.4 | 25 | 4.4 | . | 0.7 | 0.6
RanGTP-Imp inh | -1.3 | -2.4 | 1.6 | -2.1 | 2.0 | 0.9 | -0.4 | 2.2
Calb FLC | -3 | -2 | 15 | -14 | -1 | -1 | . | -5
Beta cell apopt | -7 | 4 | -8 | -7 | -3 | . | 11 | -2
AF4-AF9 inh | -5.6 | . | -1.5 | 1.6 | . | . | 17 | -0.2
T cruzi inh | 0 | 26 | 4 | 21 | -9 | -8 | 13 | 2
A1 inh | 0.0 | 0.3 | 0.3 | 0.8 | -0.5 | . | -0.1 | -0.9

17: COc1ccc(CCNC(=O)CCc2nnc(Cc3ccc4c(c3)OCO4)o2)cc1
18: COc1ccc(S(=O)(=O)N2CCn3c2nc2ccccc23)cc1
19: Cc1ccc(S(=O)(=O)N2CCCCC2)cc1C(=O)Nc1ccccn1
20: COc1ccccc1NS(=O)(=O)c1cc(C(=O)NCC(c2cccs2)N2CCOCC2)ccc1C (stereo not given)
21: CCN1C(=O)C(CC(=O)Nc2ccc(OC)cc2)N(Cc2ccc(OC)c(OC)c2)C1=S (stereo not given)
22: O=C(CSc1nnc2ccccn12)N1CCOCC1
23: Cc1ccc(CNS(=O)(=O)c2c(C(=O)N3CCCCC3)c(C)n(C)c2C)o1
24: Cc1ccc(N(Cc2cc3ccc(C)cc3[nH]c2=O)C(=O)c2ccco2)c(C)c1
Compound | 17 | 18 | 19 | 20 | 21 | 22 | 23 | 24
Vif A3G | ? | 4% | . | 9% | -3% | 5% | . | -12%
LANA-H2B inh | 6.6 | -3.9 | 8.0 | 0.5 | -1.7 | 2.2 | -0.4 | 5.4
RanGTP-Imp inh | -0.3 | -3.7 | 2.9 | 11 | 0.5 | -1.5 | 0.5 | 2.4
Calb FLC | -21 | -6 | 4 | 0 | 19 | -13 | -4 | 0
Beta cell apopt | . | 0 | . | 0 | -5 | -6 | -2 | 10
AF4-AF9 inh | 4.2 | . | -0.8 | -1.6 | -1.9 | -70 | -4.8 | -8.4
T cruzi inh | 6 | 0 | 3 | 5 | -13 | -1 | -4 | 0
A1 inh | -0.8 | 0.3 | 0.9 | 0.5 | -1.3 | 1.1 | 0.8 | -0.3

25: CCOc1ccccc1CNCc1ccc(C(=O)O)cc1
26: CC(C)(C)NC(=O)c1cc(NC(=O)c2ccco2)cc(NC(=O)c2ccco2)c1
27: COc1ccc(Cc2nnc(NC(=O)c3ccccc3F)s2)cc1OC
28: COCCN(C(=O)C1CCC1)c1c(N)n(CC(C)C)c(=O)[nH]c1=O
29: C#CCSc1nsc(SCC#C)c1C#N
30: CCn1ncc([N+](=O)[O-])c1C(=O)Nc1cc(C)on1
31: Fc1ccc(-n2cc(CNCCc3cccnc3)c(-c3ccccc3Cl)n2)cc1
32: N#C/C(=C(/O)COC(=O)c1ccc2c(c1)OCCO2)c1nc2ccccc2[nH]1
Compound | 25 | 26 | 27 | 28 | 29 | 30 | 31 | 32
Vif A3G | 7% | 1% | -5% | 0% | 8% | 8% | -8% | 0%
LANA-H2B inh | -1.2 | -0.8 | 2.7 | -2.2 | -2.8 | 1.4 | -4.0 | -0.4
RanGTP-Imp inh | -0.4 | ? | -1.4 | . | 0.2 | 1.3 | 1.4 | 2.2
Calb FLC | -4 | -8 | 14 | . | -3 | -6 | -4 | 31
Beta cell apopt | -2 | 0 | -2 | 3 | -1 | 3 | 5 | 2
AF4-AF9 inh | -3.2 | . | 1.3 | -2.2 | . | . | 4.0 | .
T cruzi inh | -9 | 7 | -16 | . | -9 | -12 | 13 | -20
A1 inh | -0.5 | 1.5 | 1.0 | 1.7 | 1.3 | 0.3 | -0.3 | 0.7

Record cards, from the list above. Order of values: Vif A3G	LANA-H2B inh	RanGTP-Imp inh	Calb FLC	Beta cell apopt	AF4-AF9 inh	T cruzi inh	A1 inh
Results for COc1ccc(Cc2nnc(NC(=O)c3ccccc3F)s2)cc1OC → -5%	2.7	-1.4	14	-2	1.3	-16	1.0
Results for N#C/C(=C(/O)COC(=O)c1ccc2c(c1)OCCO2)c1nc2ccccc2[nH]1 → 0%	-0.4	2.2	31	2	.	-20	0.7
Results for COCCN(C(=O)C1CCC1)c1c(N)n(CC(C)C)c(=O)[nH]c1=O → 0%	-2.2	.	.	3	-2.2	.	1.7
Results for Fc1ccc(-n2cc(CNCCc3cccnc3)c(-c3ccccc3Cl)n2)cc1 → -8%	-4.0	1.4	-4	5	4.0	13	-0.3
Results for CCn1ncc([N+](=O)[O-])c1C(=O)Nc1cc(C)on1 → 8%	1.4	1.3	-6	3	.	-12	0.3

(listing goes on)
33: O=C(CCn1nnc2ccccc21)OCC(=O)c1ccc(F)cc1
34: O=c1[nH][nH]c(-c2ccccc2)c1C=Nc1cccc(Cl)c1
35: CCCNC(=O)N1CCC(c2ccc3c(c2)OCO3)CC1
36: CC(C)NC(=O)C12CC3CC(C1)CC(C(=O)NC(C)C)(C3)C2
37: CCOC(=O)CC(NS(=O)(=O)c1ccc2[nH]cc(C(=O)O)c(=O)c2c1)c1ccc(OCC)c(OC)c1 (stereo not given)
38: NC(=O)CN1C(=O)C(=O)N(Cc2ccc(Cl)cc2)C1=O
39: CCCCCC(=O)Nc1nc(C)c(-c2csc(Nc3cc(Cl)ccc3C)n2)s1
40: C/C(=N\NC(=O)c1ccc(-c2ccccc2)cc1)c1ccco1
Compound | 33 | 34 | 35 | 36 | 37 | 38 | 39 | 40
Vif A3G | . | ? | -3% | . | 30% | 3% | 3% | 2%
LANA-H2B inh | -4.2 | 2.3 | -1.3 | 0.0 | -1.0 | -1.6 | -2.6 | -2.6
RanGTP-Imp inh | 0.5 | -0.1 | 0.6 | 0.6 | 1.5 | 2.2 | -5.7 | -2.1
Calb FLC | -4 | 0 | -12 | -11 | -7 | -25 | -4 | -5
Beta cell apopt | -11 | -5 | -3 | -2 | -2 | -7 | 3 | 3
AF4-AF9 inh | -9.6 | . | -2.6 | -0.9 | -2.0 | -0.8 | -9.9 | 0.4
T cruzi inh | -11 | -6 | 5 | -3 | -4 | -5 | 5 | -5
A1 inh | 0.2 | 0.9 | -0.5 | 0.7 | 0.6 | -0.4 | -1.4 | -0.1

41: O=C(CSc1ccc2nnc(-c3ccc(F)cc3)n2n1)NCc1ccco1
42: O=C(Cn1ccc2ccccc2c1=O)NCCC(=O)Nc1cccnc1
43: CCN1C(=Nc2ccc(Cl)cc2)SC/C1=C\C(=O)OC
44: CC1CCCN(c2ccc(C(=O)NCC3CCCO3)cn2)C1 (stereo not given)
45: CCc1ccc(OCCSc2nc3ccccc3n2CCC(=O)O)cc1
46: Cc1ccc(-n2c(O)c(C=Nc3ccccc3-c3n[nH]c(=S)[nH]c3=O)c3ccccc3c2=O)c(C)c1
47: CC(NS(=O)(=O)c1ccc(F)cc1)C(c1cccs1)N1CCN(C)CC1 (stereo not given)
48: COC(=O)/N=C/c1c(NCc2ccccc2)nc2c(C)cccn2c1=O
Compound | 41 | 42 | 43 | 44 | 45 | 46 | 47 | 48
Vif A3G | 11% | -7% | -2% | 12% | . | 1% | 2% | .
LANA-H2B inh | 2.3 | -4.2 | -3.5 | 0.3 | -2.0 | 3.5 | -1.3 | 2.3
RanGTP-Imp inh | -1.2 | -1.2 | 1.4 | -1.1 | 1.7 | 3.6 | -0.1 | 7.0
Calb FLC | 7 | -4 | 11 | 9 | 10 | 0 | 0 | -15
Beta cell apopt | . | -12 | 7 | -2 | -5 | 8 | -7 | -6
AF4-AF9 inh | . | . | -14 | -2.9 | -0.6 | 0.1 | . | .
T cruzi inh | -6 | -10 | -11 | 11 | -1 | 21 | -2 | 20
A1 inh | 0.7 | 1.9 | 1.0 | -0.8 | 1.0 | 0.6 | 0.0 | -0.7

49: Cc1ccc(C)n1-c1ccsc1C(=O)CC#N
50: COc1ccccc1Cn1c(=S)[nH]c2cc(C(=O)NCCN3CCOCC3)ccc2c1=O
51: Cc1cccc(C(=O)N2CCN(c3ccccn3)CC2)c1
52: COc1ccc(OC)c(NC(=O)Nc2cccnc2)c1
Compound | 49 | 50 | 51 | 52
Vif A3G | 23% | 17% | 1% | .
LANA-H2B inh | -4.1 | -5.7 | 5.1 | 0.4
RanGTP-Imp inh | 1.4 | 2.1 | 1.3 | .
Calb FLC | 5 | 3 | -7 | 24
Beta cell apopt | -1 | 0 | -1 | 2
AF4-AF9 inh | -5.7 | . | . | -1.7
T cruzi inh | -16 | 1 | -6 | .
A1 inh | 0.1 | 0.3 | 1.5 | -0.7
